Source: PubChem BioAssay
AID504770 – E. coli YBA685 growth inhibition, screen for V. cholerae RctB inhibitors. E. coli YBA685 rctB-dependent plasmid, OD600 growth, 3 h; stronger effect = lower value. z-score (no concentration beside the values). 130,000 compounds, 0.27% hits;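 active = z-score under -2 on both plates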;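 note: wells of about 30 µL received 100 nL stock; score is relative to mean and SD of the test wells; the first replicate is given; strong numbers were not always called active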
CapD inh – inhibitors of Bacillus anthracis CapD enzyme. 140,000 compounds, 0.23% hits. purified CapD enzyme, fluorescence intensity read-out; stronger effect = lower value; some hits fall short of the stated cut. z-score (concentration not given with the values);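 active = z-score under -4 in either of two replicates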;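 note: stock transfer was 100 nL into about 40 µL; score is relative to mean and spread of the plate; one replicate is shown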
* marks the source's active call; other numbers are inactive results; i = inactive; . = no result given; & = joins results of further samples.

A first look:
SMILES | AID504770 | CapD inh
CC(C)S(=O)(=O)/C(C#N)=C/Nc1cccnc1 | 0.15 | -0.77
O=C1CSC(=Nc2ccccc2)N1S(=O)(=O)c1ccccc1 | -0.55 | 17

The list itself, from the first entry:
SMILES | AID504770 | CapD inh
CC(C)S(=O)(=O)/C(C#N)=C/Nc1cccnc1 | 0.15 | -0.77
O=C1CSC(=Nc2ccccc2)N1S(=O)(=O)c1ccccc1 | -0.55 | 17
c1cncc(C2=NCCC2)c1 | . | 1.8
CCCCCn1c(=N)c(C#N)cc2c(=O)n3ccccc3nc21 | 0.4 | .
Cn1ccsc1=NC(=O)c1ccccc1OC(F)F | -0.85 | .
O=C(c1ccco1)N1CCN(C(=O)c2cc(F)c(F)c(F)c2F)CC1 | -0.45 | -0.68
O=C(CSc1n[nH]c(-c2cccs2)n1)N1CCCc2ccccc21 | -0.5 | .
COc1ccc(NC(=O)C2CCC(=O)N2C(=O)OCc2ccccc2)cc1 (stereo not drawn) | -0.05 | 1.1
Nc1ccccc1Sc1ccc(C(=O)c2ccccc2C(=O)O)cc1[N+](=O)[O-] | . | -1.4
CCOC(=O)c1ccc(NCc2nc3ccccc3[nH]2)cc1 | 1.4 | 0.82
COc1cccc(OC)c1CN1CCC(N)CC1 | . | 0.07
COc1cc(C(=O)O)cc(I)c1OC1CCCC1 | 1.4 | 0.36

Entries of single compounds as entered above:
COc1ccc(NC(=O)C2CCC(=O)N2C(=O)OCc2ccccc2)cc1 (stereo not drawn) as listed: AID504770 = -0.05; CapD inh = 1.1
Nc1ccccc1Sc1ccc(C(=O)c2ccccc2C(=O)O)cc1[N+](=O)[O-] as listed: AID504770 = .; CapD inh = -1.4

(cont.)
SMILES | AID504770 | CapD inh
O=C1C2C3C=CC(CC3)C2C(=O)N1c1cccc(C(F)(F)F)c1 (stereo not drawn) | . | 0.31
CCCCN1CCCCC1C(=O)Nc1c(C)cccc1C (stereo not drawn) | -0.2 | 0.43&-0.52
CCC1=Nc2cc(C(=O)NCC3CCCO3)ccc2Sc2ccc(Br)cc21 (stereo not drawn) | -0.9 | -1.3
Clc1ccc(CN2COc3c(cc(Cl)c4cccnc34)C2)cc1Cl | . | -0.2
O=C(CC1(O)C(=O)Nc2ccc(Br)cc21)c1ccco1 (stereo not drawn) | . | -0.025
CC1Cc2cc(S(=O)(=O)NC3CCCC3)ccc2N1C(=O)C1CC1 (stereo not drawn) | -1.5 | 0.24
CC(NC(=O)CCN1C(=O)NC2(CCCC2)C1=O)c1cc(F)c(Cl)cc1Cl (stereo not drawn) | -0.9 | .
O=c1c2cc(NS(=O)(=O)c3ccc(Cl)c(Cl)c3)ccc2oc2ncccc12 | . | 0.39
CCc1ccc(NC(=O)CCN2C(=O)C3C4C=CC(C4)C3C2=O)cc1 (stereo not drawn) | -0.15 | 0.03
N#CC1(C#N)[C@H](c2cccc(I)c2)[C@@H](C(=O)c2ccccc2)N2c3ccc(Cl)cc3C=C[C@@H]21 | . | -0.07
CCOC(CNC(=O)NS(=O)(=O)c1ccc(C)cc1)(OCC)c1ccccn1 | . | -0.36
CCOC(=O)CCc1cc(N=Cc2cc(Br)ccc2O)c(O)c(N=Cc2cc(Br)ccc2O)c1 | . | -0.39
Cc1noc(NS(=O)(=O)c2ccc(N3CC(O)=C(c4ccccc4)C3=N)cc2)c1C | 0 | .
O=c1[nH]c2ccc(NC(=S)Nc3ccc(S(=O)(=O)N4CCOCC4)cc3)cc2[nH]1 | 0.35 | .
COc1ccc(C2CCCN2C(=O)c2cccs2)cc1 (stereo not drawn) | -0.75 | -1.8
CCn1nc(C)c(CCNC(=O)c2cc3c(=O)n(Cc4ccc(OC)cc4)ccc3nc2C)c1C | 0.2 | 15
CCOC(=O)CN1C(=O)C(O)(CC(=O)c2ccc3c(c2)OCO3)c2ccccc21 (stereo not drawn) | 1.1 | 2
CCN(CC)C(=O)c1cccc(Nc2ccc(-c3ccccc3OC)nn2)c1 | -0.3 | .
CCn1c(C(O)c2cc(C(C)(C)C)c(O)c(C(C)(C)C)c2)nc2ccccc21 (stereo not drawn) | 0.3 | -0.33
CCC(=O)Nc1ccc(NCc2ccccc2C)cc1 | 1.7 | -0.93
COc1ccc(Nc2nc(C(=O)NCc3ccco3)cs2)cc1 | -0.2 | .
CSC(SC)=C(C#N)C(=O)c1cccc(Cl)c1 | -0.4 | -1.6
COc1ccc(CCNc2nc(C)cc(=O)[nH]2)cc1OC | -0.4 | 0.79
N#Cc1ccc(OCC(=O)NCc2ccco2)cc1 | 0.2 | -0.51

4 entries from above in another layout:
SMILES: CCOC(=O)CN1C(=O)C(O)(CC(=O)c2ccc3c(c2)OCO3)c2ccccc21 (stereo not drawn)
  AID504770 = 1.1; CapD inh = 2
SMILES: CCn1c(C(O)c2cc(C(C)(C)C)c(O)c(C(C)(C)C)c2)nc2ccccc21 (stereo not drawn)
  AID504770 = 0.3; CapD inh = -0.33
SMILES: COc1ccc(CCNc2nc(C)cc(=O)[nH]2)cc1OC
  AID504770 = -0.4; CapD inh = 0.79
SMILES: CSC(SC)=C(C#N)C(=O)c1cccc(Cl)c1
  AID504770 = -0.4; CapD inh = -1.6

(list continues)
SMILES | AID504770 | CapD inh
CC12CC[C@@H]3C(=O)CCC(O)CC(=O)CC[C@H]3C1(O)CCC2C1=CC(=O)OC1 (stereo partly drawn) | 0.35 | 0.89
O=C(CC(c1cccs1)S(=O)(=O)c1ccccc1)c1ccc(F)cc1 (stereo not drawn) | 0.7 | 0.51
O=S1(=O)CC2C(C1)N(c1ccccc1)C(=S)N2c1ccccc1 (stereo not drawn) | 0.15 | -0.49
O=c1[nH]ncc(N2CCc3ccccc3C2)c1Cl | 0.6 | 0.11
CCOC(=O)c1c(N)sc2ccccc12 | -0.1 | 0.82
N#Cc1c(NC(=O)CSc2ccccc2)sc2c1CCC2 | 0.95 | .
CCc1ccc(-n2c(N)c(C(=O)OC)c3nc4ccccc4nc32)cc1 | -0.5 | -1.1
CC(NC(=O)c1ccc(Br)o1)C1CC2CCC1C2 (stereo not drawn) | 0.4 | 0.78
CC(C)(C)c1cc(CCC(=O)OCCSCCOC(=O)CCc2cc(C(C)(C)C)c(O)c(C(C)(C)C)c2)cc(C(C)(C)C)c1O | . | 1.1
COc1ccc(C(=O)c2nnn(-c3ccc(OC(F)(F)F)cc3)c2C)cc1 | . | -0.13
Cc1c(C#N)c(NC(=O)CSc2ccc(F)c(Cl)c2)n(Cc2ccco2)c1C | 0.85 | .
Nc1ncc(Br)cc1[N+](=O)[O-] | . | -0.46
C=CCNC(=S)Nc1cccc(NC(=O)CC(NCc2ccco2)C(=O)O)c1 (stereo not drawn) | 0.75 | .
CSc1nc(C)cc(OCCNC(=O)COc2ccc(Cl)cc2C)n1 | 0.55 | 0.5
COc1ccc(Br)cc1CNC(=O)c1cc(-c2ccccc2)n(C)c1C | -0.25 | 2.3
Cc1cc(C)c2cccc(NC(=O)COc3ccc4oc5c(c4c3)CCCC5)c2n1 | -0.5 | -0.57
COc1cc2c(cc1OC)CN(CC(=O)Nc1ccc3c(c1)OC(F)(F)O3)CC2 | -0.45 | .
CC(=O)Nc1ccc(S(=O)(=O)N2CCSC2)cc1 | -0.75 | -0.06
CC(C)NS(=O)(=O)c1ccc(CCC(=O)Nc2ccc3c(c2)OCCO3)cc1 | -0.85 | .
O=c1sc2ccccc2n1CCc1ccccc1 | -0.55 | .
CN(C)S(=O)(=O)n1cc(/C=C(\NC(=O)c2ccccc2)C(=O)NCc2ccco2)c2ccccc21 | 2 | 2.3
C=CCn1c(=S)sc2c(SCc3ccc(F)cc3)ncnc21 | 0.75 | 13
O=C(O)c1cn(-c2ccc(F)cc2)c2cc(N3CCNCC3)c(F)cc2c1=O | -3.5* | .
Cc1ccn(CCC(=O)N(C)C(C)CCc2ccco2)n1 (stereo not drawn) | -0.55 | -0.5
CSC(=NC=[N+](C)C)Nc1c(C)cccc1C | . | 0.39
Cc1ccc(C(=S)N2CCOCC2)cc1 | 0 | 0.14
CCOC(=O)c1oc2ccccc2c1CSc1nnc(-c2ccco2)o1 | -0.25 | .
O=c1[nH]c2ccccc2n1C1=CCN(S(=O)(=O)c2ccc(Cl)cc2Cl)CC1 | . | 0.74
CCC(C(=O)O)n1nnc(-c2ccc(OCc3ccccc3)c(OC)c2)n1 (stereo not drawn) | -0.45 | .
O=C(/C=C/c1ccccc1)N1CCC(C(=O)N2CCN(C3CCS(=O)(=O)C3)CC2)CC1 (stereo not drawn) | 0.25 | .
COC(=O)c1ccc(/C=C2/SC(=Nc3ccccc3Cl)NC2=O)cc1 | . | -1.4
CCOC(=O)C1CCN(C(=O)Cn2cccc2C(=O)c2ccccc2)CC1 | -0.6 | -0.035
CC1(C)CC(=O)c2cc(OCC(=O)NCCN3CCOCC3)ccc2O1 | 0.4 | 0.21
S=C(S)N1CCCCC1 | -5.2* | -0.12
Cn1c(SCC(=O)NC(=O)c2ccc(OC(F)F)cc2)nc2ccccc21 | -1.2 | .
CC(C)(C)NC(=O)Nc1ccccc1SCCC#N | 2.7 | -1
Cc1cc(NC(=O)c2nn(-c3ccc(Cl)cc3)c(=O)c3ccccc23)no1 | . | 3.9
CCOC(=O)CSc1nc2c(sc(=S)n2-c2cc(Cl)ccc2OC)c(=O)[nH]1 | . | -0.91
CCOC(=O)c1oc2ccccc2c1NC(=O)/C=C/c1ccccc1 | -0.3 | 0.64
COC(=O)CNC(c1ccccc1)c1cc(C)ccc1N (stereo not drawn) | 0.65 | -0.34
CCN1CCN(CCCNC(=O)c2n[nH]c(=O)c3ccccc23)CC1 | . | -0.27
Cc1[nH]oc(=O)c1C=Nc1ccccc1 | -0.15 | -3.2
O=C(O)C1Sc2[nH]c(=O)sc2C2c3ccc(O)cc3OC(=O)C12 (stereo not drawn) | -0.65 | -8.8*
O=C(N/N=C/c1ccc([N+](=O)[O-])s1)c1ccc2ccccc2c1 | . | 0.045
CC(C)CCCn1c(O)c(/C=C2\C=CC=N2)c(=O)[nH]c1=O | -0.55 | -1.8
O=C(COc1ccccc1)Nc1cccc(C(F)(F)F)c1 | -0.45 | -2.2
CCN(C(=O)CCN1C(=O)c2ccccc2C1=O)c1ccccc1 | -0.75 | 0.2
N#Cc1c(NCCNc2ncc(C(F)(F)F)cc2Cl)cc[nH]c1=O | . | -0.46
O=C(NCC(c1cccs1)S(=O)(=O)c1cccs1)NC1CCCCC1 (stereo not drawn) | 0.5 | .
Cc1ccc(-n2[nH]c(C)cc2=O)cc1 | . | -0.22
Cc1sc(NC(=O)c2ccco2)c(C2=CC(=O)N(c3ccccc3)C2=O)c1C | 1.6 | .
Cc1cc(C)c2cc(C(=O)Nc3ccccc3Cl)[nH]c2c1 | -0.4 | 25
CC(C)C(NC(=O)c1ccc(-n2nc(-c3ccccc3)cc2-c2ccccc2)cc1)C(=O)Nc1ccc2ccccc2c1 (stereo not drawn) | . | 3.5
CN(C)CCN(Cc1ccco1)C(=O)c1c2c(nc3ccccc13)C(=O)N(C1CCCCC1)C2 | -0.9 | -1.6
CCOC(=O)/C(=N\O)c1c(C)nn(-c2ccc(F)cc2)c1C | 0.25 | .
N#Cc1ccc(Oc2ccc(C(F)(F)F)cc2[N+](=O)[O-])cc1 | . | 0.45
N#CCC(=O)NNC(=S)Nc1ccc(F)cc1 | . | 0.26
Nc1ccc(CC(C(=O)O)c2ccccc2)cc1 (stereo not drawn) | -0.55 | 0.08
CCCc1nn(-c2ccccc2F)c2c1C(=O)CC(C)(C)C2 | 0 | 1.3
CC(C)C(=O)NC1=NC2C(N=CN2C2CC(O)C(CO)O2)C(=O)N1 (stereo not drawn) | -0.3 | -0.015

Next entries:
SMILES | AID504770 | CapD inh
Nc1c(C(=O)c2ccc(Br)s2)oc2ccc(Cl)cc12 | . | -0.27
CCOC(=O)CSc1nc2cc(C(=O)N3CCc4ccccc4C3)ccc2c(=O)n1Cc1ccccc1 | . | 0.76
CCOC(=O)c1ccc(NC(=O)C(CC)Sc2nc(N)cc(N)n2)cc1 (stereo not drawn) | 1.1 | .
CC(=O)Oc1ccccc1-c1ccccc1 | -0.1 | 0.025
Cc1nc(-c2ccc(S(=O)(=O)N3CCCN(c4nc5ccc(Cl)cc5s4)CC3)s2)cs1 | . | 0.6
Cn1c(-c2ccccc2)c(/C=N/NC(=O)c2cccs2)c2ccccc21 | -0.5 | .
c1ccc(-c2nc(-c3ccc(-c4ccon4)s3)no2)cc1 | 0.55 | 1.5
O=C(OCCc1cccc(Cl)c1)N1CCN(c2ccccc2Cl)CC1 | . | -0.53
Cc1csc(Nc2ccccc2)[n+]1C | -0.3 | i
CCn1c2ccccc2c2cc(CN3CCC(NC(=O)c4ccccc4COC(=O)c4ccccc4)C3)ccc21 (stereo not drawn) | . | 5.8
CC1CCN(Cc2ccc(NC(=O)Nc3cn(C)c(=O)c4ccccc34)cc2)CC1 | -0.4 | 54
Cc1ccccc1C(=O)Oc1ccc(C#N)cc1 | 0.45 | -0.35
N=c1occ(C(=O)c2cc(Cl)ccc2O)cc1C(=O)NC1CC1 | -0.3 | .
COc1cc(OC)cc(C(=O)NCC(=O)N2CC(C)CC(C)C2)c1 (stereo not drawn) | -0.75 | .
CC(=O)Oc1cc2c3c(c(=O)oc2cc1C)CCCC3 | 1.5 | 0.05
NC(N)=NS(=O)(=O)Cc1ccccc1 | -0.85 | -0.68
CCOC(CNC(=O)c1c[nH]c2ccc(S(=O)(=O)N(C)c3ccc(Br)cc3)cc2c1=O)OCC | . | 1.5
CC(C)Oc1ccc(C(=O)NC(=S)N2CCOCC2)cc1 | 1.4 | -0.025
CCCc1nc2ccccc2c(C(=O)OC2CCOC2=O)c1CC (stereo not drawn) | 2.3 | .
O=C(c1ccc(Cl)cc1)N(Cc1ccccc1)c1ccccn1 | -0.65 | 0.54
